PMP22 txn: modulators of PMP22 gene transcription in S16 Schwann cells. S16 Pmp22-F2sN Schwann cells (luciferase reporters placed in the Pmp22 gene), FLuc/NLuc coincidence luminescence, 24 h. Potency, µM (titrated, usually from 57.5 µM), inactives show at the highest dose activity change, negative = inhibition, actives largely listed as inhibitors. 43,000 tested, 2% active; active = clear falling dose curves in both reporters; inconclusive = both reporters move, but less clearly or upward; inactive = either reporter flat; the % is the NLuc reporter signal; further: on the % scale 0 is the no-effect control and ±100 the full control effect; some results filed as inactive show a strong effect at the top dose
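qHTS, 1536-well. Cells seeded, compounds added by pin tool, 24 h 37C. Nano-Glo reagent 1 (lysis/FLuc), 10 min RT, read; Stop&Glo, 10 min RT, read NLuc.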
HTT prom inh: HTT promoter inhibition. HEK293 HTT promoter firefly luciferase reporter (activity 0% = vehicle and -100% = no light), 24 h. 48,000 tested, 0.93% active. Potency, µM (highest dose often 57.5 µM), for the others: at the highest dose activity change, negative = inhibition, most hits filed as inhibitors; active means well fitted inhibition curve with a large enough effect; inconclusive means small, poorly fitted or top-dose-only effect; inactive means no such curve, though single readings can be large or run the other way; further: nearly all actives have a fitted effect of over 50% in size
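Firefly luciferase readout (Dual-Glo, 10 min RT) after 24 h, 37 °C compound exposure (final up to 57.5 uM) of HEK293 reporter cells cultured 24 h beforehand; PTC124 at 50 uM final as control inhibitor; activity scaled vehicle 0%, zero RLU -100%.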
* = called active by the depositor; u = inconclusive; x = no result given; & = joins results of further samples; [ ] = another dose, or the depositor's remark. Potency means the concentration at half of the fitted maximal effect. Not all compounds are listed (hit frequency here may not be typical).

SMILES	PMP22 txn	HTT prom inh
O=C(Nc1cc(C(F)(F)F)ccc1Cl)c1cc(-c2cccs2)nc2ccccc12	u	-2%
CCOC(=O)c1c(S(=O)(=O)N2CCC(C(=O)NCc3ccc(F)cc3)CC2)c(C)n(C)c1C	-7%	-11%
COc1ccc(-c2[nH]nc3nc(-c4cc(Br)ccc4OC)cc(C(=O)O)c23)cc1	34%	-10%
CCN(CC)C(=O)Cn1c(=O)cc(C)c2c(C)nn(-c3cccc(Cl)c3C)c21	u	-9%
COc1ccc(F)cc1S(=O)(=O)NCCc1sc2nc(-c3ccc(F)cc3)nn2c1C	u	u
COc1cc2ccccc2cc1C(=O)Nc1ccc2oc(-c3cccc(C)c3)nc2c1	u	19%
COc1ccc(C(=O)NCC(c2cccnc2)N2CCN(c3ccc(F)cc3)CC2)cc1 (configuration not stated)	-22%	u
O=C(Nc1cccc(O)c1)c1cc(-c2ccccc2F)no1	29%	24%
CCC(=O)N1c2nc(-c3ccco3)nn2C2(CCCCC2)[C@@H]2CCCC[C@@H]21	-35%	-11%
Cc1cccc(C(=O)NCC(=O)OCc2cc(=O)n3nc(C4CCCCC4)sc3n2)c1	-5%	-16%
CCOc1ccccc1NC(=O)C1CCCN1S(=O)(=O)c1ccc2c(c1)C(C)(C)C(=O)N2C (configuration not stated)	-19%	-31%
Cc1ccc2c(=O)cc(CSc3nnc(-c4ccccc4)n3C)[nH]c2c1C	8%	-2%
Cc1ccc(NC(=O)c2cnn3c(C(F)F)cc(-c4ccccc4)nc23)c(C)c1	u	-13%
CC(C)C(NS(=O)(=O)c1ccc2c(c1)oc(=O)n2C)C(=O)NCc1ccccc1 (configuration not stated)	4%	-3%
COc1cc(NC(=O)CN(C)S(=O)(=O)c2ccc3c(c2)CCCC(=O)N3)cc(OC)c1OC	-27%	-25%
CCOc1ccc(C(=O)NCC(c2ccc3c(c2)OCO3)N2CCOCC2)cc1 (configuration not stated)	19%	-15%
Cc1cc(C)cc(NC(=O)c2ccc3c(c2)nnn3C2CCCC2)c1	u	u
COc1ccc(N(C(=O)c2ccc(C(C)(C)C)cc2)S(=O)(=O)c2ccc(Cl)cc2)cc1	u	u
Cc1ccc(C(=O)c2cn(Cc3ccccc3C)c3nc(C)ccc3c2=O)cc1	u	u
COc1ccc(CNC(=O)c2cc3c(=O)oc4ccc(C)cc4c3s2)c(OC)c1	-84%	-6%
Cc1cc(C)nc(-n2nc(C)c3c2N(Cc2ccccc2)C(=O)CC3c2ccc(Cl)cc2)n1 (configuration not stated)	0%	u
Cn1c(=O)cc(SCC(=O)N2CCN(c3ccccc3)CC2)c2ccccc21	-12%	1%
CC(C)c1ccc(Nc2c(-c3ccsc3)nc3ccc(Cl)cn23)cc1	17%	-1%
CCOC(=O)C1CCCN(C(=O)C2CCN(S(=O)(=O)c3c(C)noc3/C=C/c3ccc(C)cc3)CC2)C1 (configuration not stated)	u	-13%
COc1ccc(-n2c(=O)c3sc4ccccc4c3n(C)c2=O)cc1	-3%	2%

Single records, from the list above. Screens in order: PMP22 txn, HTT prom inh
`CCOc1ccc(C(=O)NCC(c2ccc3c(c2)OCO3)N2CCOCC2)cc1` (configuration not stated) as listed: 19%, -15%
`COc1ccc(F)cc1S(=O)(=O)NCCc1sc2nc(-c3ccc(F)cc3)nn2c1C` as listed: u, u

Shown field by field: 3 of the compounds above
COc1cc2ccccc2cc1C(=O)Nc1ccc2oc(-c3cccc(C)c3)nc2c1
  PMP22 txn = u | HTT prom inh = 19%
COc1ccc(C(=O)NCC(c2cccnc2)N2CCN(c3ccc(F)cc3)CC2)cc1 (configuration not stated)
  PMP22 txn = -22% | HTT prom inh = u
O=C(Nc1cccc(O)c1)c1cc(-c2ccccc2F)no1
  PMP22 txn = 29% | HTT prom inh = 24%

Next results
SMILES	PMP22 txn	HTT prom inh
COc1cc(OC)cc(C(=O)Nc2ccc(S(=O)(=O)Nc3onc(C)c3C)cc2)c1	-79%	-2%
CSc1nc2sc3c(c2c(=O)n1-c1ccccc1)CCC(C(C)(C)C)C3 (configuration not stated)	-2%	-3%
CCOC(=O)c1c(S(=O)(=O)NCC(=O)Nc2cc(C)ccc2C)c(C)n(C)c1C	1%	-10%
Cc1sc2c(c1C)c(=O)n(CCc1ccccc1)c(=O)n2Cc1ccccc1Cl	-1%	-4%
Cc1c(Cl)cccc1NC(=O)CCn1cnnn1	4%	-7%
Cc1cc(C)cc(N2CCn3c2nc2c3c(=O)n(Cc3c(F)cccc3Cl)c(=O)n2C)c1	-2%	-2%
CCOc1ccccc1NC(=O)c1cc2c(=O)n(Cc3cccnc3)ccc2nc1C	u	-1%
CCCCCn1c(C(C)NC(=O)c2ccccc2)nc2ccccc21 (configuration not stated)	9%	-16%
COc1ccc(NC(=O)c2cc3c(C)nn(-c4ccccc4)c3s2)c(OC)c1	-18%	-10%
CC1CCCCN1C(=O)CN1CCSc2ccccc21 (configuration not stated)	-32%	-19%
O=C(Nc1cccc(-c2cn3cccnc3n2)c1)c1cc(Br)ccc1Cl	-9%	-13%
O=C(c1ccco1)n1nc(-c2ccc(Cl)cc2)nc1NCc1ccccc1	u	30%[activator]
Cc1cccc(NC(=O)C(=O)NCCc2sc(-c3ccccc3)nc2C)c1C	u	-5%
COc1ncnc(NS(=O)(=O)c2ccc(N)cc2)c1OC	x	-9%&6%
Cc1ccc(NC(=O)CCCn2c(=O)c3cccn3c3ccccc32)cc1C	-4%	-15%
COc1ccc(NC(=O)c2c(NC(=O)COc3ccccc3)sc3c2CCC(C)C3)cc1 (configuration not stated)	-6%	23%
COc1cc(C(=O)Nc2ccc3[nH]c(=O)sc3c2)cc(OC)c1OC	-12%	12%
Cc1cccc(N2CCN(C(=O)c3cc4c(=O)n(C)c5ccccc5c4s3)CC2)c1C	-9%	-3%
Cc1ccc(NC(=O)N2CC3CCCN3c3ccccc32)cc1Cl (configuration not stated)	u	-28%
COc1cc(NC(=O)Cn2c(=O)n(CC(=O)NCCc3ccc(OC)c(OC)c3)c(=O)c3sccc32)cc(OC)c1	u	-7%
COc1ccc2c(c1)c(=O)c(S(=O)(=O)c1ccccc1)cn2CC(=O)Nc1ccc(C)c(Cl)c1	0%	u
CN1CCC[C@@H]1Cc1c[nH]c2ccc(CCS(=O)(=O)c3ccccc3)cc12	x	-5%
CN(C(=O)CSc1nnc(-c2ccccc2F)o1)C1CCCCC1	u	-19%
CC(C)c1ccc(NC(=O)CCS(=O)(=O)c2ccc(Br)s2)cc1	u	u
CC(=O)c1ccc(N2CCN(S(=O)(=O)c3ccc(-c4cnc(C5CC5)o4)cc3)CC2)cc1	-14%	-24%

Some of the entries above, reformatted.
Results follow in this order: PMP22 txn | HTT prom inh
COc1ccc(NC(=O)c2cc3c(C)nn(-c4ccccc4)c3s2)c(OC)c1
    -18% | -10%
COc1ccc(NC(=O)c2c(NC(=O)COc3ccccc3)sc3c2CCC(C)C3)cc1 (configuration not stated)
    -6% | 23%

Random excerpt: three entries already listed
SMILES	PMP22 txn	HTT prom inh
COc1ccc(NC(=O)c2cc3c(C)nn(-c4ccccc4)c3s2)c(OC)c1	-18%	-10%
COc1ccc(NC(=O)c2c(NC(=O)COc3ccccc3)sc3c2CCC(C)C3)cc1 (configuration not stated)	-6%	23%
Cc1ccc(NC(=O)CCCn2c(=O)c3cccn3c3ccccc32)cc1C	-4%	-15%

(more compounds)
SMILES	PMP22 txn	HTT prom inh
Cc1cc(SCC(=O)Nc2nsc(-c3ccc(C(C)(C)C)cc3)n2)nc2ccccc12	u	u
Cc1ccc2nc(-c3ccc(N4CCOCC4)cc3)c(Nc3ccccc3C)n2c1	u	-13%
CCOC(=O)c1c(-c2ccc(C)cc2)csc1NC(=O)c1cc(=O)c2ccc(C)cc2o1	24%	-17%[11.5 µM]
CC(C)(C)NC(=O)[C@H]1CC[C@H]2[C@@H]3CC[C@H]4NC(=O)C=C[C@]4(C)[C@H]3CC[C@]12C	x	u
Cc1cc(C)c2sc(N3CCN(C(=O)C4CC4)CC3)nc2c1	6%	0%
CCOC(=O)c1scc(-c2ccccc2)c1S(=O)(=O)Nc1cc(OC)cc(OC)c1	-14%	-1%
Cc1nn(C)c2c1c(-c1ccccc1)cc(=O)n2Cc1ccccc1F	-2%	-1%
CCOc1ccc(N2CC(NC(=O)c3ccc(S(=O)(=O)N4CCCC4)cc3)CC2=O)cc1 (configuration not stated)	-10%	-3%
COc1ccc2ncc3c(-c4ccccc4)nn(-c4ccc(C)c(C)c4)c3c2c1	-17%	-6%
CCc1ccc2oc(-c3ccc(C)c(NC(=O)c4cc([N+](=O)[O-])ccc4N4CCOCC4)c3)nc2c1	-28%	-10%
COc1ccc(Cc2nc3ccc(C(=O)NCCc4ccc(Cl)cc4)cc3o2)cc1	-50%	u
CC(=O)c1ccc(NC(=O)c2cn(-c3ccccc3)nc2-c2ccc(Br)cc2)cc1	-24%	-7%
COCCCn1c(=N)c(C(=O)NC2CCCC2)cc2c(=O)n3ccccc3nc21	-35%	-4%
O=C(O)c1ccc(Nc2nc3ccccc3c3nncn23)cc1	u	20%
COc1ccc(Nc2nnc(-c3ccc(C)c(S(=O)(=O)N4CCOCC4)c3)c3ccccc23)cc1	-159%	-6%
Cc1ccc(-c2nc(CCNC(=O)c3ccc(C)c(C)c3)cs2)cc1	-25%	-31%
Cc1ccccc1C(=O)n1nc(-c2cccnc2)nc1NCc1ccccc1	-5%	u
COc1cccc(CNC(=O)CN2C(=O)COc3ccc(S(=O)(=O)N4CCCCCC4)cc32)c1	10%	-25%
Cc1n[nH]c(C)c1CCc1nc2c3ccccc3nc(SCC(=O)Nc3ccc(F)cc3)n2n1	u	-5%
CCC(=O)Nc1ccc2nc(SCCOc3ccc(C)cc3OC)sc2c1	-12%	-14%
COc1ccc(-c2nc3sc(CCNS(=O)(=O)c4c(C)cc(C)cc4C)c(C)n3n2)cc1	u	u
O=C1CSC2(C(=O)N(Cc3cccc(C(F)(F)F)c3)c3ccccc32)N1c1ccc(F)c(F)c1 (configuration not stated)	u	u
CCOC(=O)c1cnc2c(Cl)cccc2c1NCCN1CCOCC1	-17%	-2%
CC(C)Sc1ncc(Cl)c(C(=O)N(Cc2ccc(F)cc2)C2CCS(=O)(=O)C2)n1 (configuration not stated)	-6%	-21%
CCOc1ccc(CNCc2c(C(=O)O)c(C)n(Cc3ccc(F)cc3Cl)c2C)cc1	-14%	u

Next compounds.
SMILES	PMP22 txn	HTT prom inh
CCOc1ccccc1C1C(C(N)=O)=C(C)Nc2nc(-c3ccccc3Cl)nn21 (configuration not stated)	-160%	3%
CC(C)C[C@H](NC(=O)[C@@H](O)[C@H](N)Cc1ccccc1)C(=O)O	x	-14%
CC1=C(C(=O)NCc2ccccc2C)C2(CCCCC2)OC1=O	12%	0%
COc1ccccc1CNC(=O)CN1C(=O)c2cccnc2Oc2ccccc21	-5%	2%
Cc1ccc(C)c(NC(=O)c2nc(S(C)(=O)=O)ncc2N(Cc2ccc(C(C)(C)C)cc2)Cc2ccco2)c1	4%	-30%
Cn1c(=O)c(=O)n(C)c2cc(S(=O)(=O)N3CCCC3C(=O)Nc3ccccc3F)ccc21 (configuration not stated)	-18%	-1%
COc1ccccc1CCNC(=O)C(=O)NCC(c1cccnc1)N1CCN(c2ccccc2)CC1 (configuration not stated)	-38%	13µM*
Cc1nn(C)c(C)c1S(=O)(=O)N(CC(=O)Nc1ccc(F)cc1F)c1ccc(C(C)C)cc1	-26%	u
COC(=O)c1ccc(CSc2nc3c([nH]c4ccccc43)c(=O)n2-c2cccc(Cl)c2)o1	18µM*	-27%
Cc1cc(C)c(NC(=O)C(C)n2nnc3sc4c(c3c2=O)CCCC4)c(C)c1 (configuration not stated)	-7%	16%
CC1CCN(S(=O)(=O)c2ccc3nc(Nc4cccc(F)c4)ccc3c2)CC1	u	u
CCc1ccc(NC(=O)CN2C(=O)C(c3ccc(F)cc3)=NC2(C)C)cc1	6%	-25%
CCOC(=O)c1nnn(C(CC)C(=O)Nc2ccc(F)cc2)c1C(=O)OCC (configuration not stated)	-3%	u
CCOc1ccc(-c2nonc2NC(=O)c2oc3ccc(C)cc3c2C)cc1OCC	u	-16%
CC1CCCCN1Cc1c(O)ccc2c(=O)c(-c3ccccc3)coc12 (configuration not stated)	-53%	-3%
Cc1cc(Nc2cccc(Cl)c2)nc2ccc(NC(=O)c3ccc(F)cc3Cl)cc12	u	u
COc1cc(C(=O)Nc2ccc(NC(=O)c3ccc(C(C)(C)C)cc3)cc2)cc(OC)c1OC	u	u
COc1ccc(N(CC(=O)Nc2cc(OC)cc(OC)c2)S(=O)(=O)c2c(C)noc2C)cc1	u	u
COc1ccc(-c2nsc(NC(=O)c3cccc(OC)c3)n2)cc1	-20%	-23%
CCOc1ccc(OCC)c(NS(=O)(=O)c2cc(-c3cnc(C)o3)ccc2OC)c1	u	-22%
Cc1ccc(NC(=O)N2CCN(Cc3nc4ccc(C)cc4o3)CC2)c(Cl)c1	4%	-33%
CCOc1ccc(/C=C/C(=O)Nc2ccc3nc(N(CC)CC)cc(C)c3c2)cc1OC	u	-22%
Cc1cc(OCC(=O)NC(Cc2c[nH]c3ccccc23)C(=O)O)ccc1Cl (configuration not stated)	u	-5%

High-throughput results from PubChem BioAssay.
